# Marburg entry inh: blocks Marburg virus binding to or entry into cells; Marburg virus pseudotyped entry inhibition, cell reporter; control for the full effect not named in the record; about a third of the inactives were read at about 46 µM; hit rate 1.8% among 300,000; Potency, µM (highest dose often 37.8 µM), without a hit: at the top dose activity change, negative = inhibition, hits mostly inhibitors; active = well fitted inhibition curve with a large enough effect; inconclusive = small, poorly fitted or top-dose-only effect, or effect the other way; inactive = flat fitted curve, though single readings scatter; tested in HEK293 cells; about a fifth of its hits are not listed in these tables; also: % is scaled to controls: 0 for no effect and ±100 for the full control effect; luciferase read-out
# Cruzain inh noDet: cruzain (T. cruzi) inhibition without detergent | hit rate 2.3% among 200,000 | purified cruzain, Z-FR-AMC fluorescence, no detergent | Potency, µM, for the others: max response, negative = inhibition, usual class: inhibitors | P25779;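 also: plate controls were enzyme without inhibitor for no effect and buffer without enzyme for full effect; nearly all actives have a fitted effect of over 40% in size; top concentration of the series not given in the record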
# Target sequence (P25779 123-467 limits assumed): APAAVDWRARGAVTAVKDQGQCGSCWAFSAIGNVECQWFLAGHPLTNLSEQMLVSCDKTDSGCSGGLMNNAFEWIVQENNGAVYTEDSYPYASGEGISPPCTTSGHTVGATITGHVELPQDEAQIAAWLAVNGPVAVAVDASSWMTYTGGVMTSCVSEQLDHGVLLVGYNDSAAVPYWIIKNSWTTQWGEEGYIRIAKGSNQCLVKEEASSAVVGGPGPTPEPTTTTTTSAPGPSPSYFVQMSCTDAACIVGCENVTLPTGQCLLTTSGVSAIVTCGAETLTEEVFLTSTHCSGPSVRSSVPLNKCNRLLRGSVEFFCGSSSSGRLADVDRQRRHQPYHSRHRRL
#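 Detergent-free condition (0.00005% Triton X-100) in acetate buffer pH 5.5 with DTT. 1.5 nM enzyme and compound were pre-mixed 15 min, then 2 uM Z-FR-AMC substrate added; reaction progress from fluorescence change between first and third reads (60 s).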
# SARS PLP yeast: blocks SARS-CoV papain-like protease in a yeast assay | S. cerevisiae expressing SARS-CoV PLpro, growth rescue; control for the full effect not named in the record | Potency, µM (series often up to 32.9 µM), for inactives: at the top dose activity, positive = growth rescue | hit rate 0.19% among 330,000 | AID 485353; active means well fitted rising curve with a large enough effect; inconclusive means small, poorly fitted or top-dose-only effect; inactive means no such curve, though single readings can be large or run the other way; also: 0% is about no effect; nearly all actives have a fitted effect of over 55% in size; growth read by luminescence after 48 h
# Cruzain Triton: inhibitors of Trypanosoma cruzi cruzain with detergent. P25779. purified cruzain, Z-FR-AMC fluorescence, 0.01% Triton. AID 1478. Potency, µM, without a hit: max response, negative = inhibition, most hits filed as inhibitors. hit rate 0.43% among 200,000;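 also: plate controls were neutral wells for no effect and buffer without enzyme for full effect; nearly all actives have a fitted effect of over 40% in size; top concentration of the series not given in the record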
#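 Steps: dispense cruzain (1.5 nM final) in acetate buffer pH 5.5 with DTT and 0.01% Triton X-100; pin-transfer compounds; incubate 15 min RT; add Z-FR-AMC (2 uM final); read fluorescence every 30 s, using the 60 s intensity change.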
# NS1 inh: influenza NS1 inhibition | Potency, µM (highest dose often 46.1 µM), for the others: top-dose activity, positive = more growth | S. cerevisiae slowed by influenza A NS1, growth recovery by OD600 | hit rate 0.4% among 270,000 | AID 2326; active means well fitted rising curve with a large enough effect; inconclusive means small, poorly fitted or top-dose-only effect; inactive means no such curve, though single readings can be large or run the other way; also: nearly all actives have a fitted effect of over 50% in size
#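 OD600 was taken as the measure of yeast growth restored by compound in an NS1-expressing S. cerevisiae strain. Cells had been washed out of glucose medium and diluted 1:100 into galactose -URA medium, pH 6.0.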
# 2A StopGo: FMDV 2A StopGo reporter, luciferase signal; hit rate 1.2% among 410,000; Potency, µM (highest dose often 57.9 µM), without a hit: at the top dose signal change, negative = less light; human cells with a luciferase reporter of 2A StopGo recoding; control for the full effect not named in the record; active = well fitted falling curve with a large enough effect; inconclusive = small, poorly fitted or top-dose-only effect; inactive = no such curve, though single readings can be large or run the other way; tested in HEK293T cells; also: % is scaled to controls: 0 for no effect and ±100 for the full control effect; nearly all actives have a fitted effect of over 45% in size; luciferase light after 4 h
# LASV entry inh: Lassa virus entry inhibition | Lassa virus pseudotype entry inhibition, cell reporter; control for the full effect not named in the record | Potency, µM (top dose mostly 37.9 µM), for the others: top-dose activity change, negative = inhibition, hits mostly inhibitors | hit rate 1.2% among 300,000 | AID 540256; active means well fitted inhibition curve with a large enough effect; inconclusive means small, poorly fitted or top-dose-only effect, or effect the other way; inactive means flat fitted curve, though single readings scatter; tested in HEK293 cells; also: % is scaled to controls: 0 for no effect and ±100 for the full control effect; nearly all actives have a fitted effect of over 50% in size; luciferase read-out
# RE007 growth inh: less growth of the S. pombe RE007 Vpr strain; S. pombe RE007 Vpr strain, BacTiter-Glo ATP luminescence, 24 h; control for the full effect not named in the record; Potency, µM (highest dose often 92.2 µM), for the others: at the top dose activity change, negative = less growth; hit rate 0.21% among 360,000; AID 651644; active = well fitted falling curve with a large enough effect; inconclusive = small, poorly fitted or top-dose-only effect; inactive = no such curve, though single readings can be large or run the other way;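 also: % is scaled to controls: 0 for no effect and ±100 for the full control effect; nearly all actives have a fitted effect of over 50% in size; the assay follows cell death caused by Vpr and the record does not say whether a fall means rescue or toxicity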
#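 Fission yeast RE007 carrying one integrated HIV-1 vpr copy, seeded at OD 0.01 in PMG+AL medium with 23 nL pinned compound. Grown 24 h at 30 degrees; viability read by BacTiter-Glo luminescence after 5 min.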
# * hit, by the source's call; ? = inconclusive; · = not tested or not shown; & = joins results of further samples; [ ] = another dose, or the depositor's remark. Unless noted, calls follow the shape of the dose curve; as a rule, active = well fitted curve in the direction sought with a large enough effect; inconclusive = small, poorly fitted or top-dose-only effect, or another doubt; inactive = no such curve, though single readings can be large; an effect the other way counts as inactive or inconclusive. Potency is read from the fitted curve at half-maximal effect.
SMILES,Marburg entry inh,Cruzain inh noDet,SARS PLP yeast,Cruzain Triton,NS1 inh,2A StopGo,LASV entry inh,RE007 growth inh
Cc1ccc(Cn2ncn3c(cc4ccccc43)c2=O)cc1,-6%,-1%,-3%,-14%,-12%,-20%,-17%,-11%
Cc1cn2c(=O)cc(COC(=O)COc3ccc(C)c(C)c3)nc2s1,·,-10%,·,-7.7%,·,0%,0%[46.1 µM],·
CCc1ccc(C2c3c(oc4cc(C)c(C)cc4c3=O)C(=O)N2c2nc(C)c(C(=O)OC)s2)cc1 (stereo not drawn),?,0%,·,-0.8%,·,-5%,18%[46.1 µM],·
COc1ccc([C@@H]2[C@@H]3C(=O)N(C(C)(C)C)C(=O)[C@@H]3[C@]3(Cc4ccccc4)C(=O)N(c4ccc(Br)cc4)C(=O)N23)cc1,·,·,-4%,·,-10%,-8%,·,-11%
COC(=O)CN1C(=O)CSc2ccc(S(=O)(=O)Nc3cccc(C)c3)cc21,·,-14%,·,-6.8%,·,39%[activator],13%[46.1 µM],·
Cc1ccc2c(c1)sc1nc(=O)n(-c3cccc(Cl)c3)c(=O)n12,?,13%&-4%,-3%,0.0%&1.9%,-7%,?,?,23%
CCOC(=O)C(NC(=O)C1CCCN1C(=O)OCc1ccccc1)C(=O)OCC (stereo not drawn),7%,-6%,-6%,-3.0%,-3%,-18%,-7%,-11%
CCCc1ccc(C(=O)NNc2ccc(F)cc2)cc1,15%[46.1 µM],·,-3%,·,-55%,-6%,-10%[46.1 µM],242%
CS(=O)(=O)N(CC(=O)N1CCCCCC1)Cc1ccc(Cl)cc1,1%,13%,0%,1.0%,-9%,-8%,-7%[14.3 µM],9%
CCN(C(=O)CSc1nnnn1-c1ccccc1OC)C1CCS(=O)(=O)C1 (stereo not drawn),5%,·,1%,·,·,17%,-5%,8%
Cc1ccc(C2N(c3ccc(Cl)cc3)C(=O)N3CCCN23)cc1 (stereo not drawn),?,·,-1%,·,-3%,16%,-23%[46.1 µM],2%
CC(C)NC(=O)NC(=O)CSc1ncc(C(F)(F)F)cc1Cl,-4%,-4%,0%,-4.8%,1%,-28%,11%,12%
CNc1c(N)n(Cc2ccccc2)c(=O)[nH]c1=O,-3%,-5%,15%,2.9%,17%,-18%,-8%,-8%
O=C(CSc1nnnn1-c1ccccc1)NCCCN1CCCC1=O,11%[46.1 µM],·,0%,·,·,-13%,?,-7%
Cc1cccn2c(=O)c3cc(C(=O)NCC4CCCO4)c(=N)n(C4CCCC4)c3nc12 (stereo not drawn),?,·,1%,·,7%,-1%,1%,-4%
Cn1c(C(C(=O)NCC2CCCO2)N(CCc2ccccc2)C(=O)Cn2nnc3ccccc32)nc2ccccc21 (stereo not drawn),16%,?,24%,-1.4%,-12%,9%,?,4%
CCOC(=O)N1CCN(C(=O)c2ccc(N(Cc3ccccc3)S(C)(=O)=O)cc2)CC1,27%,?,1%,0.5%,0%,-3%,-15%,6%
CCN(c1ccc(C)c(C)c1)S(=O)(=O)c1c(C)[nH]c(=O)[nH]c1=O,1%,2%,3%,1.4%,2%,·,6%,-7%
Cn1c(SCC(=O)N2c3ccccc3Sc3ccccc32)nnc1-c1ccco1,-7%,-18%,-18%,0.3%,-83%,-21%,-1%,1%
CCC(C)(C(=O)NC1CCCCC1)N(Cc1ccco1)C(=O)Cc1cccs1 (stereo not drawn),0%,3%,-5%,3.0%,25%,?,10%,-8%
C=CCOc1c(Br)cc(CNc2ccc(NC(=O)CCC)cc2)cc1OCC,?,18%,-13%,-2.9%,-26%,?,-28%,-6%
Cc1cc(C)c(/C=C/c2onc(C)c2S(=O)(=O)N2CCC(C(=O)NCc3ccccc3Cl)CC2)c(C)c1,·,0%,·,-4.5%,·,-8%,12%[46.1 µM],·
CC(C)(C)c1ccc(S(=O)(=O)N2CCC(O)(c3ccc(Cl)cc3)CC2)cc1,·,·,0%,·,4%,?,·,0%
O=C1CCCN1c1ccc(N2CCCC2=O)cc1,·,·,0%,·,-2%,-13%,·,7%
CC(=O)Nc1cccc(N=NN2CCCCC2)c1,-19%[46.1 µM],·,0%,·,8%,5%,18%,-24%
Clc1cccc(-c2nc3nc4ccccc4nc3n2Cc2ccccc2)c1,-12%,-1%,3%,-8.1%,24%,-27%,-2%,-9%
O=C(c1ccccc1[N+](=O)[O-])N(CCc1ccccc1)Cc1ccccc1,·,·,-1%,·,-1%,-24%,·,-3%
CC(NC(=O)Cn1cc(C(=O)C2CC2)c2ccccc21)c1ccccc1 (stereo not drawn),?,9%,1%,-4.2%,3%,-5%,-2%,3%
Cc1ccc(-c2cc(C(=O)O)n(Cc3ccccc3)n2)cc1,0%[46.1 µM],-10%,·,-3.7%,·,-10%,11%[46.1 µM],·
O=C(O)[C@H](CSCc1ccccc1)NS(=O)(=O)c1ccc(F)cc1,?,-10%,-10%,-0.5%,11%,0%,7%,17%
CCOc1ccc(S(=O)(=O)N/N=C(\C)c2ccc3c(c2)OCO3)cc1,·,·,1%,·,-1%,22%,·,6%
COc1ccc(NS(=O)(=O)c2cccc3cccnc23)cc1Cl,?,·,4%,·,6%,50%[activator],-20%[46.1 µM],7%
Cc1cccc(C)c1NC(=O)COc1ccc2c(C)c(Cc3ccccc3)c(=O)oc2c1,-5%,-30%,-5%,-9.6%,5%,?,?,4%
COc1ccc(CCNC(=O)c2cc(-c3ccc(C)cc3)nc3n[nH]c(-c4ccccc4)c23)cc1OC,·,18%,·,2.0%,·,11%,-22%[46.1 µM],·
O=C1CC(c2ccco2)CC(O)=C1C=NCCN1CCN(C(=O)Nc2ccc(Cl)cc2)CC1 (stereo not drawn),6%,15%,-11%,-1.4%,-1%,?,14%,16%
O=C(CCCN1C(=O)c2ccccc2C1=O)Nc1nccs1,-9%,-3%,6%,-2.2%,-9%,-11%,9%,11%
Cc1cccc(NC(=O)CC2SC(=O)N(c3ccccc3)C2=O)c1 (stereo not drawn),6%,-9%,-11%,-18%,16%,-8%,1%,-29%
CCOc1ccc2ccccc2c1/C=N\NC(=O)OC,4%,-6%,-22%,-8.1%,-15%,-9%,3%,-12%
O=S(=O)(Nc1ccc2c(c1)nc1n2CCOC1)c1ccccc1,8%,-4%,0%,2.0%,2%,-19%,5%,17%
O=C(O)c1ccc2ncsc2c1,26%[46.1 µM],·,0%,·,6%,-8%,25%,-6%
Cc1cccc(/C(N)=N/OC(=O)c2ccc(Cl)cc2Cl)c1,?,-6%,-87%,-7.6%,-26%,-68%,?,-15%
COc1cccc2oc(-c3ccco3)cc(=O)c12,-9%,-8%,-16%,-3.6%,-18%,?,-3%,-3%
COc1cccc(NC2=C(NCCO)C(=O)c3ccccc3C2=O)c1,4%[46.1 µM],·,-3%,·,3%,-10%,?,-3%
O=C(O)CNC(=O)c1nc(-c2ccccc2)n(-c2ccccc2)n1,0%,-6%,7%,-3.3%,-7%,2%,?,7%
CCn1c(/C=C/c2ccccc2C)nc2ccccc2c1=O,·,·,-1%,·,-16%,2%,·,-7%
CCCc1cc(=O)oc2cc(OCC(=O)Nc3ccccn3)ccc12,?,·,3%,·,-8%,-11%,-22%[46.1 µM],-11%
Cc1nn(C(=O)Cn2ccc([N+](=O)[O-])n2)c(C)c1Br,?,-1%,5%,1.5%,0%,·,6%,-9%
O=S(=O)(/C=C/c1ccccc1)N1CCN(c2ccccc2)CC1,?,-1%,1%,2.2%,-53%,-17%,-8%,14%
CS(=O)(=O)c1cccc(C(=O)Nc2ccc(-c3nc4ccccc4[nH]3)cc2)c1,?,·,17%,·,?,-26%,-15%[46.1 µM],-6%
O=C(Cn1c(=O)oc2cc(S(=O)(=O)N3CCCC3)ccc21)Nc1ccc(C(F)(F)F)cc1,-5%&-5%,?,0%,-1.2%,3%,-16%,9%,2%
CC1c2cc3c(cc2CCN1C(=O)c1cccc(Cl)c1)OCCCO3 (stereo not drawn),·,·,-3%,·,-26%,-14%,·,11%
Cc1ccccc1Nc1cc(C(=O)NCc2cccs2)c2ccccc2n1,-14%[46.1 µM],?,·,-14%,·,14%,-17%[46.1 µM],·
COc1ccc(S(=O)(=O)NCC(c2ccco2)N2CCN(c3ccc(F)cc3)CC2)cc1 (stereo not drawn),·,9%,·,-3.7%,·,-7%,?,·
O=C(Oc1ccc(-c2cnc3ccccc3n2)cc1)c1cc([N+](=O)[O-])ccc1Cl,3%,?,0%,6.3%,-2%,28%,6%,16%
COc1ccccc1/C=N/NC(=O)NC12CC3CC(CC(C3)C1)C2,?,·,1%,·,3%,-17%,-26%[46.1 µM],-6%
COc1ccc(-c2nc(CN3CCN(c4ccccc4OC)CC3)c(C)o2)cc1,?,·,0%,·,4%,28µM*,-23%,3%
O=C(CSc1nnnn1-c1ccccc1)Nc1nsc(-c2ccccc2)n1,-17%,-1%,0%,-0.7%,-4%,13%,-1%,9%
CCn1c(=S)sc2c(=O)n(CC(=O)Nc3ccccc3OC)c(C)nc21,·,·,12%,·,2%,-5%,·,-5%
Cc1c(NS(=O)(=O)c2ccc(Cl)cc2)c(=O)n(-c2ccccc2)n1C,-11%[46.1 µM],-5%,·,-0.6%,·,-1%,-10%[46.1 µM],·
COc1cc2c(cc1OC)C(COc1ccc3c(C)cc(=O)oc3c1)N(C(=O)c1ccc(C)c(C)c1)CC2 (stereo not drawn),7%[46.1 µM],-2%,·,2.6%,·,-23%,?,·
N#CCCN1CCCN(CCC#N)CCN(CCC#N)CCCN(CCC#N)CC1,1%[46.1 µM],·,0%,·,2%,-15%,?,1%
O=C(COC(=O)CCNS(=O)(=O)c1ccccc1F)Nc1nnc(-c2ccccc2)o1,?,·,-1%,·,·,18%,-14%[46.1 µM],1%

# Screens as filed in PubChem.
